Bioassay records (PubChem BioAssay)
Vif A3G: inhibitors of Vif binding to APOBEC3G peptide, primary screen, biochemical, TR-FRET, GST-Vif 1-94, biotin-A3G peptide, dose response retest (AID 1117319); Virion infectivity factor (Human immunodeficiency virus type 1 group M subtype B (isolate …; TR-FRET GST-Vif / biotin-A3G peptide binding; higher % means a stronger effect; test concentration not given here; strong numbers were not always called active; inhibition, %; hits with a dose series show IC50 in µM; hit rate 0.57% among 260,000;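 active = above the screen mean plus three standard deviations and confirmed in dose response; inconclusive = results disagree or hit not tested in dose response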;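 also: Vif residues 1-94 fused to GST binding biotinylated APOBEC3G peptide 110-148; 0% = full assay without inhibitor and 100% = GST in place of GST-Vif; retest series ran down from 100 µM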
HNF4A DNA FP: change in binding of human HNF4A to DNA, primary screen, biochemical, fluorescence polarization, FITC-DNA; 1 h; activity change, % at 10 µM; hit rate 0.3% among 360,000; AID 1224865, 2016; in the data active = activity change above about 30%, passing the limit was not always enough;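 also: controls were the assay level and a saturating level of protein; the project sought stronger binding though the title names inhibitors; some compounds called inactive have numbers as strong as hits; positive values seem to mean higher polarization but the record does not say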
Target sequence (P41235 whole entry, looked up): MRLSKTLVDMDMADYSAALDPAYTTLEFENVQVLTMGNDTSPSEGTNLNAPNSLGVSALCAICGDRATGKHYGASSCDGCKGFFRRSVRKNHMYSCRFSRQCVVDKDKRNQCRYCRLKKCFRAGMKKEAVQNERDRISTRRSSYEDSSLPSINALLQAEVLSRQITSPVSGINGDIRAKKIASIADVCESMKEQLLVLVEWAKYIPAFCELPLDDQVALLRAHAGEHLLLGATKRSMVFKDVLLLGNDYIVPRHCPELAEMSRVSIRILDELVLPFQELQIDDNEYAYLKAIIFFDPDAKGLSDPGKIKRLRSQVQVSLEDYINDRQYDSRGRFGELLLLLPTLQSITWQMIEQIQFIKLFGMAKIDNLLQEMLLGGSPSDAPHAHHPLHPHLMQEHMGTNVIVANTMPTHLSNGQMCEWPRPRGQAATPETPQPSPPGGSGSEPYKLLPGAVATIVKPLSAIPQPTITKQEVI
MLL AF4-AF9 inh: inhibitors of AF4 peptide binding to AF9, primary screen, biochemical, AlphaScreen, biotin-AF4 peptide, FLAG-AF9, single point. Protein AF-9 (Homo sapiens), P42568. inhibition, % at 10 µM. hit rate 0.47% among 350,000;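 active = every replicate reaching a set inhibition limit, whatever the replicate mean, cut at about 25% in these data; inconclusive = mean inhibition reaches that limit but some replicates miss it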;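 also: 0% = plate neutral control median and 100% = total signal loss; the record names both 10 and 1 µM as test concentration; the first replicate is given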
Ecoli growth: E. coli growth inhibition, primary screen, OD600. Escherichia coli growth, 23 h; stronger effect = lower value. OD600 absorbance (no concentration beside the values). hit rate 0.21% among 330,000;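 active = OD600 absorbance below the run mean of sample wells minus 3.6 SD, in any replicate, cut at about 0.56 in these data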;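 also: stock transfer was 300 nL into about 60 µL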
RanGTP-Imp inh: inhibitors of RanGTP-importin-beta interaction, primary screen, biochemical, FRET, CFP-Ran, YFP-importin-beta, homogeneous; hit rate 1.1% among 300,000; cell-free CFP-Ran/YFP-importin-beta FRET ratio; Ran GTPase (GTP-bound) - importin-beta complex; inhibition, % (no concentration beside the values);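 active = most replicates above 15%; inconclusive = exactly half above 15%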;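 also: 0% = DMSO wells and 100% = Ran loaded with GDP instead of GTP; wells of about 40 µL received 100 nL stock; the first replicate is given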
UCH37 inh: inhibitors of human UCH37 deubiquitinase, primary screen, biochemical, Ub-AMC cleavage, fluorescence | purified proteasome/UCH37 | inhibition, % (concentration not given with the values) | hit rate 0.33% among 330,000;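 active = mean of two replicates above 20%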;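 also: 0% = compound-free wells with enzyme and 100% = wells lacking proteasome; stock transfer was 100 nL into about 20 µL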
Target sequence (Q9Y5K5 whole entry, looked up): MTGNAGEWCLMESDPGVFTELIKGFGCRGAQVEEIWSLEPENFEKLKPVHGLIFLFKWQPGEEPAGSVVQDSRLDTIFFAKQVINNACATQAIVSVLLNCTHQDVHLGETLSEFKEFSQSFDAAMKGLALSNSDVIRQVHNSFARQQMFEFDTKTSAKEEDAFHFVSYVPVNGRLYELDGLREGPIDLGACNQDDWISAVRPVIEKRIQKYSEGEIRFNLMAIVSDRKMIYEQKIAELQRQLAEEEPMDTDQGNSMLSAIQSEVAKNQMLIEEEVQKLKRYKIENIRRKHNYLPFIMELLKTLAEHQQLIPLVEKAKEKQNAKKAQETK
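assay system = human UCH37 enzyme supplied as purified proteasome complex | amount = proteasome at 0.15 nM in the dispensed enzyme solution | schedule = 30 min compound-proteasome preincubation then 25 min substrate reaction, room temperature | measured by = fluorescence, ex 355 nm, em 460 nm | benchmarks = no-proteasome wells (full inhibition) and compound-free wells (no inhibition)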
FGF22 binding: binders of human FGF22 protein, primary screen, FGF22 synaptogenesis inhibitor project, biophysical, thermal shift, single point; AID 651658, 2012; calls only at 9.99 µM; hit rate 1.5% among 340,000; Fibroblast growth factor 22 (Homo sapiens), Q9HCT0; recombinant FGF22 thermal shift, SYPRO orange fluorescence; percent of sucrose octasulfate shift, DMSO zero;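 active = melting point raised past a set limit in the mean and every replicate; inconclusive = no clear call; three in four hits are not shown here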
Target sequence (Q9HCT0 whole entry, looked up): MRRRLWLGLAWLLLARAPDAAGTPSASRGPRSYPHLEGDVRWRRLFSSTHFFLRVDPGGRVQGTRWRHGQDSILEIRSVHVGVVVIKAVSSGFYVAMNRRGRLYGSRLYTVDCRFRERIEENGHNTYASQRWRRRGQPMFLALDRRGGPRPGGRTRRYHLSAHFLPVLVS
An asterisk follows results filed as active; i = inactive; ? = inconclusive; / = not tested or not shown; & = joins results of further samples. This is a subset; rates above refer to the full screens.

SMILES	Vif A3G	HNF4A DNA FP	MLL AF4-AF9 inh	Ecoli growth	RanGTP-Imp inh	UCH37 inh	FGF22 binding
O=C(CCCc1nc(-c2ccccc2Cl)no1)N1CCOCC1	?	6.7	-98.1	0.713	-1.5	3.5	i
Cc1nccn1-c1ccc(NC(=O)[C@H]2O[C@@H](n3ccc(=O)[nH]c3=O)[C@H](O)[C@@H]2O)cc1	/	-5.9	1.1	/	/	/	i
COc1cccc(/C=N/NC(=O)c2[nH]c(C)c(C(=O)N/N=C/c3cccc(OC)c3)c2C)c1	?	-1.3	/	/	5.2	/	/
COc1ccc(C(=O)NC(C(=O)NCc2ccccc2OC)C(C)C)cc1 (stereo not drawn)	/	2.6	0.4	0.677	1.8	4.8	i
C=CCN1C(c2ccc(Br)cc2)=CS/C1=C(\C#N)c1nnc(N2CCOCC2)n1-c1ccccc1	1.8%	1.7	15.0	0.676	/	6.9	i
O=C(NCc1ccco1)C1CCCN(c2ncnc3c2nc2n3CCCCC2)C1 (stereo not drawn)	/	-0.8	2.8	0.728	?	2.6	i
COc1cc(CNC(C)C23CC4CC(CC(C4)C2)C3)ccc1OCC(=O)NC(C)(C)C (stereo not drawn)	/	4.8	7.0	0.632	-1.0	-0.5	i
CC1CCN(C(C)C(=O)Nc2ccccc2-c2ccccc2)CC1 (stereo not drawn)	0.9%	-1.4	/	0.712	-0.6	1.4	/
O=C(O)Cn1ccc2ccccc21	3.4%	2.4	-0.1	0.67	-1.1	3.7	i
O=C(NCc1cccc(C(F)(F)F)c1)C1CC(c2c(Cl)cccc2Cl)=NO1 (stereo not drawn)	7.1%	0.9	-0.1	0.681	-0.7	2.4	i
COc1ccccc1-c1cc(C(=O)Nc2cc(C)nn2-c2ccccc2)no1	6.0%	6.0	/	0.696	5.1	-1.9	/
CCCCOc1ccc(C(=O)N2CCCC2C(=O)O)cc1 (stereo not drawn)	8.9%	-0.1	/	0.743	-2.4	-1.4	/
Cc1csc(CN(C)C(=O)c2cn(Cc3cccc4ccccc34)nn2)n1	-4.8%	1.5	-0.1	0.71	-2.7	3.9	i
CC(C)NCC(O)(c1ccc(Cl)cc1)c1ccc(Cl)cc1	1.1%	-1.3	0.4	0.653	0.1	3.4	i
CCCCCn1c2nc3ccccc3nc2c2c(=O)n(CC(C)C)cnc21	?	0.8	/	0.765	2.5	-27.5	/
COc1ccc(N2CCN(C(CNC(=O)c3ccc4c(c3)OCO4)c3ccco3)CC2)cc1 (stereo not drawn)	-5.2%	1.9	2.3	0.677	1.5	3.1	i
CC(C)N(CC#CCC(O)(c1ccccc1)c1ccccc1)C(C)C	-2.6%	0.8	/	0.643	-1.8	-0.6	/
O=C(N=C1SC2CS(=O)(=O)CC2N1c1ccccc1)C1CC1 (stereo not drawn)	/	1.4	-1.1	0.718	2.6	3.6	i
COC(=O)CCN(C(=O)c1cc(OC)c(OC)c(OC)c1)c1ccccn1	2.0%	-0.5	-2.8	0.684	-0.2	-2.3	i
Cc1ccc2c(c1)cc(CN(Cc1ccco1)S(=O)(=O)c1ccccc1)c1nnnn12	-1.7%	-1.1	/	0.718	-0.9	4.9	/

Compound profiles, as listed above.
Record of COC(=O)CCN(C(=O)c1cc(OC)c(OC)c(OC)c1)c1ccccn1 : Vif A3G = 2.0%; HNF4A DNA FP = -0.5; MLL AF4-AF9 inh = -2.8; Ecoli growth = 0.684; RanGTP-Imp inh = -0.2; UCH37 inh = -2.3; FGF22 binding = i
Record of CC(C)NCC(O)(c1ccc(Cl)cc1)c1ccc(Cl)cc1 : Vif A3G = 1.1%; HNF4A DNA FP = -1.3; MLL AF4-AF9 inh = 0.4; Ecoli growth = 0.653; RanGTP-Imp inh = 0.1; UCH37 inh = 3.4; FGF22 binding = i
Record of O=C(N=C1SC2CS(=O)(=O)CC2N1c1ccccc1)C1CC1 (stereo not drawn) : Vif A3G = /; HNF4A DNA FP = 1.4; MLL AF4-AF9 inh = -1.1; Ecoli growth = 0.718; RanGTP-Imp inh = 2.6; UCH37 inh = 3.6; FGF22 binding = i

Later entries:
SMILES	Vif A3G	HNF4A DNA FP	MLL AF4-AF9 inh	Ecoli growth	RanGTP-Imp inh	UCH37 inh	FGF22 binding
Cc1ccc(NC(=O)c2cn(-c3cccc(C)n3)cn2)cc1	-2.7%	-4.2	/	0.768	-3.8	-4.4	/
COc1cc2[nH]c(=S)n(Cc3cccs3)c(=O)c2cc1OC	-5.7%	-3.4	-8.5	0.702	?	3.3	i
O=C(COC(=O)c1ccc2c(c1)OCCO2)NC1CCCCC1	-7.3%	7.9	0.5	/	/	/	i
COc1ccc(NC(=O)Cn2c(=O)n(-c3ccc(OC)cc3OC)c(=O)c3c(C)c(C)sc32)cc1	2.5%	1.7	/	0.708	-0.6	-1.5	/
CN1CCCN(C(=O)CNC(=O)c2ccccc2Br)CC1	/	-0.6	0.5	0.649	/	2.7	i
Cc1ccccc1C(=O)c1c[nH]c(C(=O)NCCCn2ccnc2)c1	?	1.8	/	0.763	5.1	4.8	/
COC(=O)C1CN(C(=O)c2ccc(OC(F)F)cc2)c2ccccc2O1 (stereo not drawn)	/	1.5	-1.5	0.701	0.1	2.7	i
Cc1[nH]c(SCC(=O)Nc2cc(C(N)=O)cc(C(N)=O)c2)nc1Cc1ccccc1	-6.8%	0.4	2.5	0.698	/	-1.0	i
COc1cc2[nH]c(=O)n(CCC(=O)N3CCN(Cc4ccccc4)CC3)c(=O)c2cc1OC	-10.8%	2.9	-5.6	0.691	7.0	-4.7	i
Cc1occc1C(=O)N/N=C/c1ccc(Cl)c([N+](=O)[O-])c1	-4.5%	-1.0	2.1	/	-4.5	/	i
CCc1ccc(NC(=O)c2cnc3n(c2=O)CCS3)cc1	-0.7%	-1.1	3.1	0.684	-0.3	6.2	i
COc1ccc(C2c3ccc(O)cc3Oc3ncn(Cc4ccccc4)c(=N)c32)cc1OC (stereo not drawn)	-4.7%	-58.5	1.2	0.716	3.0	-0.1	i
Cc1nc2ccc(F)cc2cc1C(=O)NC(C)C	-0.1%	10.0	8.1	0.742	1.3	2.8	i
CCn1c(SCC(=O)NCc2ccc(C)cc2)nnc1-c1ccncc1	-7.3%	0.3	/	0.709	0.9	2.7	/
CN(C)c1ccc(C(CC(=O)O)NC(=O)c2ccc(Cl)cc2)cc1 (stereo not drawn)	?	-4.0	/	0.781	0.9	-1.0	/
O=C(COc1ccc(Cl)cc1)NNC(=O)CSc1nncs1	-2.1%	2.2	-0.9	0.679	-3.9	-0.5	i
O=c1cc(N2CCOCC2)[nH]c(=O)n1-c1ccc(Br)cc1	-1.3%	1.7	-4.5	0.727	10.8	5.8	i
C[C@H]1CN([C@@H](C)CO)C(=O)CCCn2cc(nn2)CO[C@@H]1CN(C)S(=O)(=O)c1ccc(Oc2ccccc2)cc1	/	-2.6	1.5&-0.9&-11.4	/	/	/	i
O=C(OCC(=O)N1CCN(c2ccccc2)CC1)C1=COCCO1	0.3%	-4.1	/	0.688	-0.5	3.0	/
CC(=O)NCCn1c(SCc2cc(F)ccc2F)nc2ccccc2c1=O	-3.2%	4.1	/	0.716	-1.2	2.7	/
COCC(=O)n1nc(-c2ccccc2)nc1NCc1ccccc1	/	0.3	-0.1	0.712	/	2.6	i
COc1ccc2[nH]c(C(=O)O)c(NC(=O)c3cc(OC)c(OC)c(OC)c3)c2c1	-2.4%	-2.9	-0.7	0.677	?	6.9	i
NC(=O)C1CCN(C(=O)c2ccc(Cl)c(S(=O)(=O)N3CCc4ccccc43)c2)CC1	/	3.5	1.2	/	/	/	i
O=C(CSc1nnc2scc(-c3ccccc3)n12)NCc1ccco1	-9.3%	0.4	/	0.695	4.3	4.9	/
CCOC(=O)C1CCN(C(=O)CC(NS(=O)(=O)c2ccc(OC)cc2)C(C)C)CC1 (stereo not drawn)	1.4%	1.4	/	0.788	3.6	0.8	/
CCN(Cc1ccccc1)C(=O)COC(=O)c1cc(=O)[nH]c2ccccc12	-13.8%	-1.4	-1.3	0.659	1.1	-33.2	/
CC(C)CNc1cc(=O)n(C)c(=O)n1C	8.9%	-0.9	/	0.716	-0.6	0.5	/
CC1(C)CC(=O)C2=C(C1)Oc1ncn3nc(-c4cccnc4)nc3c1C2c1ccccc1 (stereo not drawn)	-2.2%	-2.9	/	0.728	/	-2.3	/
CNc1nc(Oc2cccc(NC(C)=O)c2)c2sccc2n1	/	0.3	1.2	/	/	/	i
Cc1cc2c3c([nH]c2cc1S(=O)(=O)NCCCOC(C)C)CC(C)(C)CC3=O	-1.6%	-1.1	-5.2	0.662	2.9	3.3	i
COc1ccccc1NC(=O)Cn1c(CN2CCCCC2)nc2ccccc2c1=O	-2.9%	2.6	/	0.639	8.4	0.3	/
CCc1nn(-c2ccccc2)c2c1-c1cc(OC)c(OC)cc1C1(N2)C(=O)Nc2ccccc21 (stereo not drawn)	?	2.7	/	0.742	31.1*	-5.4	/
O=C(Nc1ccc(N2CCCC(O)C2)cc1)c1snc2c(=O)[nH]cnc12 (stereo not drawn)	23.0%	1.3	/	0.64	-4.7	3.4	/
Cc1ccccc1-n1c(N)c(C(=O)Nc2ccc(F)cc2)sc1=S	-3.3%	-1.5	-1.6	0.746	-2.3	-0.1	i
CC(NC(=O)c1cc(=O)[nH]c2ccccc12)c1ccc(F)cc1F (stereo not drawn)	/	-1.7	-5.6	0.681	-0.7	-17.7	i
COc1ccc(C)cc1NC(=O)COCC(=O)O	4.0%	2.3	/	0.737	8.1	2.0	/
CCc1nnc(NC(=O)C2CCCN2C(=O)Nc2ccccc2OC)s1 (stereo not drawn)	-2.9%	3.7	/	0.701	?	1.1	/
Cc1ccc(C2=NOC(C)(c3nnc(-c4ccc(F)cc4)o3)C2)cc1 (stereo not drawn)	-2.9%	4.5	-3.3	0.645	-0.7	-0.2	i
Cc1cc(Nc2nc3ccccc3nc2Cl)n(-c2ccc([N+](=O)[O-])cc2)n1	-3.0%	3.1	-1.8	0.723	-0.9	1.8	i
CCN(CC(=O)Nc1c(F)cccc1F)C(=O)c1ccc(OCC(=O)N2CCOCC2)c(OC)c1	-4.6%	3.3	-4.4	0.704	/	0.8	i
CCCC(C)NC(=O)c1ccc2[nH]c3c(c2c1)CC(C)CC3 (stereo not drawn)	1.8%	-1.9	/	0.693	/	1.9	/
COc1ccccc1S(=O)(=O)N1CCn2cccc2C1C (stereo not drawn)	3.8%	-2.1	-8.9	0.672	/	0.1	i
O=C(Nc1ncnc2c1CCC2)C12CC3CC(CC(C3)C1)C2	-1.6%	1.3	-8.0	0.669	3.1	0.5	i
CCCCNS(=O)(=O)CCNCc1ccccc1OC	1.3%	-4.0	-1.4	0.71	/	2.7	i
CC(C)CC(=O)c1c[nH]c(C(=O)NCc2cccs2)c1	-2.5%	-0.1	/	0.73	0.9	0.7	/
CCOC(=O)c1c(NC(=O)C2C3CCC(O3)C2C(=O)O)sc2c1CCCC2 (stereo not drawn)	2.3%	1.0	0.6	0.718	-2.5	4.5	i
CC(C)c1cc(CNC(=O)C2CCC(=O)N(CCc3ccc(Cl)cc3)C2)on1 (stereo not drawn)	/	-1.7	-0.6	0.663	1.4	-1.5	i
CC(=O)c1ccc(NC(=O)CSc2nnc(-c3ccco3)c(-c3ccco3)n2)cc1	3.91µM*	-30.1	-14.1	0.746	-1.0	15.1	/
